# Screening results as filed in PubChem.
# HCMV NEC inh: inhibitors of HCMV UL50-UL53 nuclear egress complex interaction | 0.15% of 190,000 active | inhibition, % (test concentration not listed) | AID 1918969 | HTRF UL50-UL53 interaction, normalized percent inhibition;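 active = both replicates at 50% or more, plus weaker picks with an unusually low signal ratio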;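 also: stock transfer was 100 nL into about 20 µL; 0% = negative control wells and 100% = wells with untagged competitor protein; inactives centre near -12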
# Sa growth inh: blocks Staphylococcus aureus growth. 0.53% of 170,000 active. S. aureus RN4220 growth, OD600, 20 h, 42 °C; active compounds read low. relative growth, % (concentration not given with the values);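 active = growth at 42 °C up to 50% and 20 or more points under that at 30 °C, or under 10% at both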;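 also: 300 nL library stock went into each well; scaled to the means of positive and negative controls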
# GIV-Gai inh: GIV-Galpha-i interaction inhibition. P08753. Galpha-i3/FITC-GIV peptide fluorescence polarization, 90 min; active compounds read low; scaled: aluminum fluoride 0%, vehicle 100%. percent of control (FP), % (no concentration beside the values). 0.42% of 210,000 active;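 active = replicate mean at 85% of control or lower, very high polarization wells dropped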;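 also: wells of about 15 µL received 100 nL stock; the first replicate is given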
# Target sequence (P08753 whole entry, looked up): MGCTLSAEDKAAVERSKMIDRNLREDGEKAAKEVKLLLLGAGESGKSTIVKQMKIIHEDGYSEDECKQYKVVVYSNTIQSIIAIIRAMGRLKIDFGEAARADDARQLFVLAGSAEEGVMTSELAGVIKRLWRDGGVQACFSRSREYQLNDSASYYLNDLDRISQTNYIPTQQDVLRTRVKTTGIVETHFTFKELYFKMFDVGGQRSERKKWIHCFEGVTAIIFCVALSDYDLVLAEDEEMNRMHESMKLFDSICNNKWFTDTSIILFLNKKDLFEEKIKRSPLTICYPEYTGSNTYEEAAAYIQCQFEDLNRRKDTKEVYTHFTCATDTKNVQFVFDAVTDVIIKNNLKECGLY
# Sa growth inh second temp: also measured in Sa growth inh; calls as there; relative growth, %; measured here: growth at 30 °C;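 optical density after 20 h as mean of two plates; 100% = untreated growth and lower means inhibition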
# * = called active by the depositor; x = no result given; & = joins results of further samples.
SMILES,HCMV NEC inh,Sa growth inh,Sa growth inh second temp,GIV-Gai inh
CN(Cc1ccccc1)C1(O)C(=O)Nc2c(C(F)(F)F)cccc21 (stereo not drawn),-13,101,95,106
O=C(CN1C(=O)CCc2cc(S(=O)(=O)N3CCOCC3)ccc21)NCc1ccccc1,x,72,91,103
Cc1ccc2c(c1)N(C(=O)N1CCC(C(=O)N3CCCCCC3)CC1)CC(C)O2 (stereo not drawn),-15,120,85,108
OCCNc1nc2ccccc2nc1NCCO,-16,111,97,106
COc1ccc(CNc2nc(-c3ccco3)nn2C(=O)c2ccccc2C)cc1,-19,98,90,101
O=C1c2cccc3c(N4CCCC4)ccc(c23)C(=O)N1c1ccccc1,-29,100,94,156
O=C(Nc1ccc(N2CCOCC2)cc1)c1n[nH]c(=O)c2ccccc12,-36,74,88,x
COc1ccc2c(c1)OCC1=C2CCC2(C)C(=O)CC=C12 (stereo not drawn),-13,103,97,158
COc1ccccc1NC(=O)CCn1nc(-c2ccccc2)c2ccccc2c1=O,-2,105,105,112
Cc1nn(C)c(C)c1CNC(=O)NCc1ccc(F)cc1,-8,x,x,104
O=C(c1cc2c(s1)CCC2)N(CCO)Cc1ccccc1,-22,110,89,x
CCc1ccc(NC(=O)C2CCC(CNS(=O)(=O)c3ccc4c(c3)CC(C)N4C(C)=O)CC2)cc1 (stereo not drawn),x,95,84,102
Cc1ccc(/C=N/NC(=O)CNc2cccc(C(F)(F)F)c2)o1,-32,96,92,x
Cc1cc(Cl)ccc1NC(=O)C1CCCN1S(=O)(=O)c1ccc2c(c1)CCCC(=O)N2 (stereo not drawn),-13,93,81,103&114
CCOC(=O)c1cccc(Nc2c3c(nc4ccccc24)CCC3)c1,-8,99,74,101
CCOC(=O)CC(NC(=O)CCc1c(C)nc2c(-c3ccccc3)c(C)nn2c1C)c1ccc(C)cc1 (stereo not drawn),-12,94,71,107
COCC(C)NC(=O)c1ccc(OC(C)=O)cc1 (stereo not drawn),-15,94,89,x
O=C(NCCN1CCOCC1)c1cc(NS(=O)(=O)c2cccs2)cc(NS(=O)(=O)c2cccs2)c1,-2,95,88,x
CN1CC=C2C(C#N)=C(N)C(C#N)(C#N)C(Cc3ccccc3)C2C1 (stereo not drawn),-74,99,82,87
c1ccc2c(c1)oc1c(NC3CCCC3)ncnc12,4,101,57,106

# Looked up by compound from above:
SMILES,HCMV NEC inh,Sa growth inh,Sa growth inh second temp,GIV-Gai inh
O=C(Nc1ccc(N2CCOCC2)cc1)c1n[nH]c(=O)c2ccccc12,-36,74,88,x
COc1ccc(CNc2nc(-c3ccco3)nn2C(=O)c2ccccc2C)cc1,-19,98,90,101
Cc1ccc(/C=N/NC(=O)CNc2cccc(C(F)(F)F)c2)o1,-32,96,92,x
O=C1c2cccc3c(N4CCCC4)ccc(c23)C(=O)N1c1ccccc1,-29,100,94,156
CN(Cc1ccccc1)C1(O)C(=O)Nc2c(C(F)(F)F)cccc21 (stereo not drawn),-13,101,95,106

# The listing picks up, starting 3 compounds before the break.
SMILES,HCMV NEC inh,Sa growth inh,Sa growth inh second temp,GIV-Gai inh
O=C(NCCN1CCOCC1)c1cc(NS(=O)(=O)c2cccs2)cc(NS(=O)(=O)c2cccs2)c1,-2,95,88,x
CN1CC=C2C(C#N)=C(N)C(C#N)(C#N)C(Cc3ccccc3)C2C1 (stereo not drawn),-74,99,82,87
c1ccc2c(c1)oc1c(NC3CCCC3)ncnc12,4,101,57,106
C=CCN(CC=C)C(=O)c1ccccc1F,7,114,110,101
COc1cccc(C(=O)Nc2cc(C)on2)c1,2,104,79,102
CN(CC(=O)NCc1ccc(F)cc1)S(=O)(=O)c1ccc2[nH]c3c(c2c1)CCCC3,x,106,88,109
Cc1ccccc1OCc1nn2c(C(C)(C)C)nnc2s1,-9,x,x,102
CCS(=O)(=O)N1CC(C)OC(C)C1 (stereo not drawn),-29,104,105,99
C=CCOc1ccc(C2CC(=O)Nc3c2c(-c2ccccc2)nn3-c2ccccc2)cc1 (stereo not drawn),-14,x,x,101
CC(C)c1ccc(NC(=O)C(Cc2ccccc2)n2cccc2)cc1 (stereo not drawn),-33,85,74,102
O=C(CC(=O)Nc1ccccn1)Nc1ccc2nc3n(c(=O)c2c1)CCCCC3,2,91,64,102&104
Cc1ccc(C(=O)Nc2c(C(=O)NCc3ccc(Cl)cc3)sc3nc(C)cc(C)c23)cc1,-32,92,90,103
Cc1nn(CCCC(=O)Nc2ccc(Cl)cc2)c(=O)c2nn(-c3ccccc3)c(C)c12,-13,x,x,100
O=C(Nc1ccc(Br)cc1)c1cnn2c1NC(c1ccc(Br)cc1)CC2C(F)(F)F (stereo not drawn),-17,x,x,95
CCOC(=O)c1ccc(NC(=O)CSc2nccn2C)cc1,-8,107,92,99
CCCn1c(CCC(=O)Nc2cc(Cl)c(OC)cc2OC)nc2cccnc21,-38,105,86,108
CCOC(=O)C1CCCN(C(=O)c2ccc3c(c2)N(Cc2ccccc2)C(=O)c2ccccc2S3=O)C1 (stereo not drawn),22,92,95,99
NC(=O)COC(=O)c1sc2ccccc2c1Cl,-95,119,83,x
CC(C)C(=O)N=C1SC2CS(=O)(=O)CC2N1c1ccccc1 (stereo not drawn),x,100,93,104
CCC1Cn2c(C(=O)N3CCN(c4ccc(F)cc4)CC3)cc3c(Cl)ccc(c32)O1 (stereo not drawn),-10,x,x,103
Cc1ccc(CNC(=O)Cn2ccn(-c3ccccc3)c(=O)c2=O)cc1,-19,81,93,108
CCCn1cnc2nc(CSc3ccccc3NC(=O)Nc3ccc(C)cc3Cl)cc(=O)n21,-16,x,x,106
CN(C)S(=O)(=O)c1ccc(C(=O)Oc2cc(Cl)c[nH]c2=O)cc1,-12,62,62,x
Cc1ccc(/C=C/c2onc(C)c2S(=O)(=O)N2CCCC(C(=O)NC3CCCCC3)C2)cc1 (stereo not drawn),-16,x,x,99
O=C(COC(=O)Cc1ccsc1)Nc1ccccc1,-25,108,85,x
C/C(=C\C#N)n1nc(C)cc1N,-21,114,82,x
O=C(CSc1nc2ccccc2o1)C12CC3CC(CC(C3)C1)C2,-22,65,61,x
CNC(=O)NC(=O)C(Sc1nnc(-c2ccco2)n1Cc1ccccc1)c1ccccc1 (stereo not drawn),-11,96,93,x
O=C(COC(=O)c1ccc2ccccc2n1)Nc1ccc(Cl)c(C(F)(F)F)c1,-8,108,86,x
CCCN(CCC)CCNC(=O)c1cc(-c2ccc(Br)s2)nc2ccccc12,-32,97,87,108
C=CCN(c1ccc(OC)cc1)S(=O)(=O)c1cccc(C(=O)OC)c1,-7,126,92,x
CN(C)Cc1ccc2ccc3cccc4ccc1c2c34,-66,69,0,x
CCOC(=O)/C(=N\Nc1cccc(C(F)(F)F)c1)N1CCCC1,-8,57,68,x
COc1cccc(N2CCN(C(=O)CCc3c(C)nc4c(c3C)c(=O)n(C)c(=O)n4C)CC2)c1,-7,102,83,104
COc1ccccc1C1=Nn2c(Cc3cccc4ccccc34)nnc2SC1,-24,64,61,x
CC(=O)c1cccc(NS(=O)(=O)c2ccc3[nH]c4c(c3c2)CCCCC4)c1,x,156,87,108
CCc1nnc(SCC(=O)N(CC)c2cccc(C)c2)c2cc3occc3n12,-75,68,39,101
CCN(CC)CCNc1nc2c(c(=O)n(C)c(=O)n2C)n1Cc1ccc(F)cc1,-1,81,88,102
CC(C)NC(=O)C(Sc1ccccc1)c1ccccc1 (stereo not drawn),-5,89,97,x
COCCNC(=O)CN1CCC(NC(=O)Nc2ccc(C(F)(F)F)cc2)CC1,2,114,88,101
CCn1c(C)nc2cc(O)ccc21,-3,71,81,x
COc1cccc(C(=O)NC(c2ccccc2)c2nnc(-c3ccc(Cl)cc3)o2)c1 (stereo not drawn),2,x,x,100
COc1ccc(-n2nc(C(=O)N(C)c3cc(C)ccc3C)c3c4ccccc4n(C)c3c2=O)cc1Cl,-25,95,89,104
CC(C)OCCCNC(=O)CCCn1c(SCC(=O)c2ccc(F)cc2)nc2c(sc3ccccc32)c1=O,-34,96,87,99
COCCn1cnc2c1c(=O)n(CC(=O)c1cc(C)n(-c3ccccc3)c1C)c(=O)n2CC(C)C,11,103,100,x
CNC(=S)N/N=C/c1ccc(C(=O)OC)cc1,-21,114,102,x
Cc1ccc(C(=O)NCC(c2ccc3c(c2)OCO3)N2CCOCC2)cc1C (stereo not drawn),x,86,89,97
Cc1c(-c2ccccc2)[n+](=O)c(-c2ccco2)c(C)n1[O-],x,90,76,102
CC1CCCCN1C(=O)c1ccc(S(=O)(=O)NCc2cccnc2)cc1 (stereo not drawn),-5,123,95,103
CCN(C(=O)c1coc(=O)c2ccccc12)c1cccc(C(F)(F)F)c1,x,139,87,103
Nc1nc(-c2ccc(Cl)cc2Cl)cs1,-21,74,65,x
C/C=C/C(=O)OCc1ccc(Cl)cc1Cl,-5,103,100,x
COc1cc2c(cc1OC)C1(CCC(O)CC1)CN(C)C2 (stereo not drawn),4,95,93,x
CC(=O)NC1Sc2ccccc2N=C1c1ccccc1 (stereo not drawn),-26,76,73,105
CC(C)(C)OC(=O)N1CCN(c2ccc(NS(=O)(=O)c3ccc(Cl)cc3)cn2)CC1,-24,108,84,101
CCc1ccc2oc(-c3ccc(N)cc3)nc2c1,-31,114,79,97
Fc1ccc(-c2cc(-c3nc(-c4cccc(Cl)c4)no3)[nH]n2)cc1,x,81,77,102
O=c1[nH]c2ccc(N=Cc3ccc4c(c3)OCO4)cc2[nH]1,-12,83,89,x
COc1ccc(NC(=O)CN(C)S(=O)(=O)c2ccc3c(c2)C(=O)NCC(=O)N3)cc1,-5,x,x,109
CC(=O)Nc1ccc(N2COc3ccc(NC(C)=O)cc3C2)cc1,x,92,77,100
Cc1ccc(-n2nc(C)c3c(C(=O)Nc4ccccc4C(F)(F)F)cc(C)nc32)cc1,x,81,84,100
NC1=NC2(CCN(Cc3ccccc3)CC2)n2c(nc3ccccc32)N1,x,93,78,102
C[N+]1(c2cccc(C(F)(F)F)c2)CCC(N)=N1 (stereo not drawn),7,92,99,x

# 4 entries from above, reformatted.
CCC1Cn2c(C(=O)N3CCN(c4ccc(F)cc4)CC3)cc3c(Cl)ccc(c32)O1 (stereo not drawn)
  HCMV NEC inh: -10; Sa growth inh: x; Sa growth inh second temp: x; GIV-Gai inh: 103
CC(C)(C)OC(=O)N1CCN(c2ccc(NS(=O)(=O)c3ccc(Cl)cc3)cn2)CC1
  HCMV NEC inh: -24; Sa growth inh: 108; Sa growth inh second temp: 84; GIV-Gai inh: 101
C=CCOc1ccc(C2CC(=O)Nc3c2c(-c2ccccc2)nn3-c2ccccc2)cc1 (stereo not drawn)
  HCMV NEC inh: -14; Sa growth inh: x; Sa growth inh second temp: x; GIV-Gai inh: 101
CN(C)S(=O)(=O)c1ccc(C(=O)Oc2cc(Cl)c[nH]c2=O)cc1
  HCMV NEC inh: -12; Sa growth inh: 62; Sa growth inh second temp: 62; GIV-Gai inh: x

# (list continues)
SMILES,HCMV NEC inh,Sa growth inh,Sa growth inh second temp,GIV-Gai inh
CC(=O)N1N=C(c2ccccc2)CC1c1cc2cc3c(cc2nc1Cl)OCO3 (stereo not drawn),-23,94,86,105
Cc1oc2ncn(CC(C)C)c(=O)c2c1C(=O)NCCCN(Cc1ccccc1)C(C)C,x,98,94,107
Nc1c(Cl)ncnc1NCCCn1ccnc1,-17,89,88,102
CCSc1ccccc1C(=O)N1CC(=O)Nc2ccccc21,-16,137,88,103
